Screens (PubChem BioAssay)
Mtb MenB inh – Mtb MenB enzyme inhibition | 100,000 tested, 0.43% active | MenB enzyme assay, absorbance read-out; some hits fall short of the stated cut | P9WNP5 | inhibition, %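 (about 12 µg/mL by stock and volumes)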;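 active = mean of two replicates above 30%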;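 also: 0% = no compound and 100% = wells with inactive enzyme; the first replicate is given; strong numbers were not always called active; inactives centre near -10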
Target sequence (P9WNP5 whole entry, looked up): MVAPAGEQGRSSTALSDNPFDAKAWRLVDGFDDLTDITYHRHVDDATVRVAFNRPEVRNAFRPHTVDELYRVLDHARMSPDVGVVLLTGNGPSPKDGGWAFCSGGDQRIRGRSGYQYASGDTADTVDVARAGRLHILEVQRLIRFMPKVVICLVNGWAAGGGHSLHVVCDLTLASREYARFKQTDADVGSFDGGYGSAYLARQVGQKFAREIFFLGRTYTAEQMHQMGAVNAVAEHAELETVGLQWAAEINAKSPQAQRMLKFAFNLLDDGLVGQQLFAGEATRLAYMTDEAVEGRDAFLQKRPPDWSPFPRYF
PV pol inh – inhibitors of poliovirus RNA polymerase binding and polymerization; AID 588519; poliovirus polymerase elongation, fluorescence polarization; active compounds read low; 150,000 tested, 0.66% active; % elongation, % (compound at 16.7 µg/mL); P03300; in the data active = % elongation below about 90%; also: some results filed as inactive read as strong as hits
Target sequence (P03300 1749-2209 limits assumed): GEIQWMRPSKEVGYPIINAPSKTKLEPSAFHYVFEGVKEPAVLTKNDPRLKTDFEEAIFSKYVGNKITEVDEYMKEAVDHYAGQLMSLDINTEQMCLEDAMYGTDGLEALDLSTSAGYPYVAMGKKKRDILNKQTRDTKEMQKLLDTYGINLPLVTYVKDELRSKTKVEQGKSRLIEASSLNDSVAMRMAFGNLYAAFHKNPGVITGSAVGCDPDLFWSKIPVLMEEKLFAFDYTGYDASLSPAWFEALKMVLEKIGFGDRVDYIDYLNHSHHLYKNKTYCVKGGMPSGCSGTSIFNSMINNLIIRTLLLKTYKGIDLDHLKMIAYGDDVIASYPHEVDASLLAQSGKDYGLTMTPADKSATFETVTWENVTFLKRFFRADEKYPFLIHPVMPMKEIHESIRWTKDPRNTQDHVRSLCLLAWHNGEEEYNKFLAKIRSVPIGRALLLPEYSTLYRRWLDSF
Mtb MbtI inh – inhibitors of Mycobacterium tuberculosis siderophore enzyme MbtI; purified MbtI enzyme, fluorescence intensity read-out; inhibition, %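 (about 17 µg/mL by stock and volumes)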; 100,000 tested, 0.89% active; AID 493033;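 active = above 50% in both replicates, above 80% if mildly self-fluorescent; inactive = the rest, strongly fluorescent compounds included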;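 also: 0% = mean of negative and 100% = mean of positive controls; one replicate is shown; some compounds called inactive have numbers as strong as hits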
PV pol inh intensity – recorded beside PV pol inh, whose call it bears; % elongation; measured here: total intensity read-out; formula for this scale not given here;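 total fluorescence in place of polarization; lower means less elongation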
Active calls of the source: *; . = no result given.

SMILES	Mtb MenB inh	PV pol inh	PV pol inh intensity	Mtb MbtI inh
Cc1ccc(Nc2cc(C(=O)NCCC3=CCCCC3)c3ccccc3n2)c(C)c1	-14.7	100.0	102.0	36.2
C=CCC1S/C(=N/N=C/c2ccccc2)NC1=O (stereo not drawn)	-8.5	101.0	106.0	9.3
COc1cccc(-n2cc[nH]c(=O)c2=O)c1	0.0	101.0	105.0	5.4
CCc1cc(C(=O)Cc2cnn(-c3ccccc3)c2)c(O)cc1OC	7.1	107.0	109.0	0.8
CC(C)NC(=O)COc1coc(CN2CCN(C(=O)c3ccco3)CC2)cc1=O	0.4	97.0	103.0	9.0
CCOC(=O)c1c(C)n(C)c2ccc(OCCN(C)C)cc12	.	102.0	103.0	-6.8
Cc1ccc(-n2nc(C)c3c(C)c(CCC(=O)NCc4cccs4)c(C)nc32)cc1	-12.2	102.0	106.0	105.3
OC1C2CN3CCN(C2)CC1(Cc1ccccc1)C3 (stereo not drawn)	-3.0	101.0	103.0	-22.3
COc1cccc2c(C)nc(NC3=NCN(CC4CCCO4)CN3)nc12 (stereo not drawn)	-8.0	101.0	104.0	10.1
CC(=O)Nc1ccccc1OCCN(Cc1ccccc1)C(=O)c1ccc(Cl)cc1	-2.7	105.0	110.0	-15.2
Nc1scc[n+]1CC(=O)[O-]	-20.7	99.0	100.0	3.9
CCNc1nc(N)nc(Oc2ccc(OCC)nn2)n1	-1.4	99.0	100.0	1.6
Cc1occc1-c1nnc(SCC(=O)NC(=O)NCc2ccccc2)n1Cc1ccccc1	-19.4	102.0	108.0	-2.5
C/C(=C\C=C\c1ccccc1)C(=O)c1c(C)cc(C)[nH]c1=O	-20.4	100.0	102.0	17.4
O=C(CN1CCN(Cc2ccccc2)CC1)NC1CC1	11.5	101.0	104.0	-12.2
CSc1ccc(-c2nc3ccccc3c(=O)[nH]2)cc1	0.0	98.0	104.0	-7.2
CC(=O)OCC(=O)Nc1ccc(I)cc1C	.	104.0	108.0	-6.5
O=C(c1ccccc1)C1CN(C2CCS(=O)(=O)C2)CCC1(O)c1ccccc1 (stereo not drawn)	-10.2	103.0	102.0	10.7
N#CC(C#N)C(c1ccsc1)c1c(-c2ccccc2)[nH][nH]c1=O (stereo not drawn)	-32.8	91.0	84.0	.
C=CCN(CC=C)S(=O)(=O)c1ccc(C)cc1	-52.1	102.0	101.0	-3.8

Compound profiles (already shown).
CCOC(=O)c1c(C)n(C)c2ccc(OCCN(C)C)cc12 as listed: Mtb MenB inh: .; PV pol inh: 102.0; PV pol inh intensity: 103.0; Mtb MbtI inh: -6.8
COc1cccc2c(C)nc(NC3=NCN(CC4CCCO4)CN3)nc12 (stereo not drawn) as listed: Mtb MenB inh: -8.0; PV pol inh: 101.0; PV pol inh intensity: 104.0; Mtb MbtI inh: 10.1
C=CCN(CC=C)S(=O)(=O)c1ccc(C)cc1 as listed: Mtb MenB inh: -52.1; PV pol inh: 102.0; PV pol inh intensity: 101.0; Mtb MbtI inh: -3.8

More structures follow.
SMILES	Mtb MenB inh	PV pol inh	PV pol inh intensity	Mtb MbtI inh
O=C(CO/N=C/c1ccccc1OC(F)F)N1CCc2ccccc21	-0.6	107.0	111.0	13.7
Cc1noc(C)c1COc1ccc(CC(=O)NCc2ccccc2)cc1	-26.0	99.0	95.0	-13.1
O=C1c2ccccc2C(=O)c2c1oc1c3c(ccc21)OCN(Cc1ccccc1)C3	-10.2	100.0	92.0	-4.0
COc1ccc(/C=N/N=C/c2ccc(OC)c(O)c2)cc1O	-47.4	101.0	104.0	-0.2
CC1=C(C(=O)Nc2ccccc2)S(=O)CCO1 (stereo not drawn)	-21.5	102.0	106.0	.
C1CCCC(NCCCN2CCOCC2)CC1	-28.0	101.0	101.0	-13.5
Cc1ccc(OCCn2cc(C=C(C#N)C#N)c3ccccc32)cc1	3.3	103.0	101.0	-1.8
CCOC(=O)Cc1nc2ccccc2o1	9.4	103.0	100.0	-13.4
COc1cccc(OC)c1C(=O)Nc1cc(Cl)ccc1N1CCOCC1	4.4	101.0	101.0	-9.9
O=C1S/C(=C\c2ccc(N3CCOCC3)o2)C(=O)N1Cc1ccc(F)cc1	0.6	102.0	126.0	-3.4
Cc1ccc(C)c(Cn2c(C(=O)OC(C)C)cc3c2ccn3C)c1	-48.7	103.0	99.0	-10.9
Cc1cc(C)cc(C(=O)NCC(c2ccc(N(C)C)cc2)N2CCOCC2)c1 (stereo not drawn)	13.8	100.0	101.0	-1.4
Cc1cc(C)n2nc(CC(=O)NC3CCCCCCC3)nc2n1	10.2	98.0	103.0	18.9
CC(=O)NCc1nc2ccccc2n1Cc1ccccc1	2.1	102.0	104.0	-6.0
OCC12C3CC4C5C3C1C5C(F)(F)C42 (stereo not drawn)	-25.1	100.0	91.0	-6.5
CCCn1c(SCC(=O)N2CCc3ccccc32)nc(O)cc1=O	-143.6	99.0	107.0	11.2
CCn1c(=O)c(=O)[nH]c2cc(C(=O)Nc3ccc4c(c3)CCC4)ccc21	-2.4	106.0	112.0	3.3
O=C(O)C1(c2ccccc2)CCC(Nc2ccccc2)C1 (stereo not drawn)	-4.6	69.0*	77.0*	.
Cc1ccc(-c2noc(CN(C)C(=O)Nc3ccc(Cl)cc3)n2)cc1	-4.7	102.0	104.0	-5.8
CCN1CCC(NC2CCC(O)CC2)CC1 (stereo not drawn)	-32.2	97.0	108.0	-12.1

Random excerpt: 6 records from the list, in no set order.
SMILES	Mtb MenB inh	PV pol inh	PV pol inh intensity	Mtb MbtI inh
Cc1ccc(OCCn2cc(C=C(C#N)C#N)c3ccccc32)cc1	3.3	103.0	101.0	-1.8
Cc1cc(C)n2nc(CC(=O)NC3CCCCCCC3)nc2n1	10.2	98.0	103.0	18.9
Cc1ccc(C)c(Cn2c(C(=O)OC(C)C)cc3c2ccn3C)c1	-48.7	103.0	99.0	-10.9
CCCn1c(SCC(=O)N2CCc3ccccc32)nc(O)cc1=O	-143.6	99.0	107.0	11.2
CC(=O)NCc1nc2ccccc2n1Cc1ccccc1	2.1	102.0	104.0	-6.0
C1CCCC(NCCCN2CCOCC2)CC1	-28.0	101.0	101.0	-13.5

(listing goes on)
SMILES	Mtb MenB inh	PV pol inh	PV pol inh intensity	Mtb MbtI inh
COc1ccccc1COc1ccc2c3c(c(=O)oc2c1C)CCCCC3	3.9	104.0	99.0	22.4
CCOC(=O)c1c(C)[nH]c(C)c1C(=O)CSC(=S)N(C)C	0.0	104.0	99.0	-1.2
Cc1nc(N)sc1-c1nnc(SC/C=C/c2ccccc2)n1C	3.9	101.0	102.0	-11.8
Cc1cc2c(c(=O)o1)C(c1cccc(COc3ccccc3Cl)c1)C(C#N)=C(N)C2 (stereo not drawn)	-13.4	101.0	108.0	.
Cc1ccc(-n2cccc2C=C2C(=O)NC(=O)NC2=O)cc1Cl	-31.8	106.0	102.0	22.7
O=C1OC(c2ccccc2)=C/C1=C/c1ccco1	-231.0	102.0	103.0	22.1
CC(C)OC(=O)c1cccnc1SCc1cc(=O)n2ccccc2n1	-20.5	101.0	95.0	59.4
COc1ccccc1NC(=O)Cc1noc(COC(=O)c2cc(OC)c(OC)cc2OC)n1	-12.1	103.0	113.0	-28.9
COc1cc(Br)cc(C=Nc2cccc(-c3nc4ccccc4o3)c2)c1O	-26.7	102.0	106.0	-17.4
CCC1CCCCN1CC(=O)c1ccccc1Cl (stereo not drawn)	4.3	109.0	115.0	-10.2
CCN1C(=O)C(CC(=O)Nc2ccc(Br)cc2)N(CCNC(C)=O)C1=S (stereo not drawn)	-5.1	101.0	101.0	14.8
COc1cc(/C=C2\C(=N)N3N=C(S(C)(=O)=O)SC3=NC2=O)ccc1OC(=O)c1ccco1	-20.5	100.0	102.0	2.9
CC(Oc1ccccc1F)c1nnc(SCC(=O)c2ccc[nH]2)o1 (stereo not drawn)	-19.6	104.0	102.0	-6.6
CCN(C(=O)C(C)Oc1ccccc1)c1ccccc1C (stereo not drawn)	-5.5	106.0	108.0	.
O=C(COC(=O)Cn1cnc2ccccc21)NC1CCCCCC1	-2.8	99.0	100.0	-14.9
CCOC(=O)c1cnc(S/C=C/C(=O)c2ccc(Cl)cc2)nc1N	14.2	100.0	94.0	4.3
COc1cc2c(cc1NC(C)C(=O)N1CCCC1)oc1ccccc12 (stereo not drawn)	-30.9	.	.	103.5
COc1ccc(C(=O)N2CCCN(C)CC2)cc1S(=O)(=O)N(C)Cc1ccccc1	-22.7	101.0	106.0	-8.4
N=c1oc2ccc(Br)cc2cc1-c1nc2ccccc2[nH]1	.	105.0	108.0	-145.5
COc1ccc(-c2nc3ccc4ccccc4c3c3c2CCC3)cc1	-23.1	103.0	97.0	21.1
Cc1cc(C)c2nc(N3CCCC(C(=O)NC4CCCc5ccccc54)C3)sc2c1 (stereo not drawn)	6.8	103.0	102.0	-6.4
O=C(CN1CCN(C/C=C/c2ccccc2)CC1)Nc1ccc2c(c1)OCCCO2	4.2	101.0	107.0	-1.2
CCNS(=O)(=O)c1ccc(NC(=O)c2ccc(Cn3cc(Br)cn3)o2)cc1	-25.9	101.0	99.0	14.3
Cc1ccc2cc(CCNC(=O)C(C)(C)C)c(=O)[nH]c2c1	1.1	102.0	103.0	-71.5
COc1ccc(C(=O)OCC(=O)NC23CC4CC(CC(C4)C2)C3)c(O)c1	-22.0	93.0	93.0	-42.0
COc1ccc(-c2c3c(=O)n(C)c(=O)n(C)c3cn2-c2cccc(NC(C)=O)c2)cc1	-3.7	105.0	93.0	-16.2
CCCn1c(N)c(C(=O)COC(=O)c2c3c(nc4ccccc24)CCC3)c(=O)[nH]c1=O	-24.7	103.0	96.0	28.4
COc1cc(/C=C/C(=O)Nc2ccc3nc(N4CCN(c5ncccn5)CC4)cc(C)c3c2)cc(OC)c1OC	-60.5	99.0	104.0	-1.6
N#CCCn1cc(/C=N/O)c(-c2ccc(Br)cc2)n1	6.3	100.0	100.0	4.5
Cn1cccc1C(=O)Nc1nccs1	1.2	.	.	-11.3
O=c1[nH]ccc2nc(N3CCOCC3)ncc12	7.8	100.0	104.0	-3.2
NNC(=O)CC1=Nn2c(nnc2-c2ccc(Cl)cc2)SC1	-8.1	106.0	104.0	26.9
c1ccc(-c2cccs2)cc1	4.8	105.0	102.0	8.6
CC(O)CNCc1ccc2c(c1)OCO2 (stereo not drawn)	-33.0	105.0	101.0	-4.8
CC(C)c1nc(=S)c2ccccc2[nH]1	-56.3	103.0	101.0	86.2
O=C(Oc1cccc(Cl)c1Cl)c1ccncc1	0.7	4.0*	26.0*	-1.6
CCn1c(C(=O)NC2CCCC2)cc2sc(Cl)cc21	-1.5	101.0	102.0	-5.2
CNC(=O)c1ccc(N)cc1	-13.0	103.0	107.0	.
Cc1ccc(Nc2nc(Nc3ccc(C)cc3)nc(Sc3nncn3C)n2)cc1	11.6	99.0	101.0	10.1
Cc1cc(C)n(-c2ccc(COC(=O)Cc3n[nH]c(=O)c4ccccc34)cc2)n1	-26.5	103.0	97.0	-1.3
Cc1ccc(-c2cnc3ccccc3n2)cc1N	.	103.0	107.0	-8.5
Cc1ccc(C)c(NC(=O)COC(=O)CC2CC3CCC2C3)c1 (stereo not drawn)	.	101.0	95.0	-6.3
O=C(CC1NC2CCCCC2NC1=O)Nc1cccc(C(F)(F)F)c1 (stereo not drawn)	-19.6	100.0	102.0	-0.2
O=C(COC(=O)C1CC2C=CC1C2)Nc1ncc(Cl)cc1Cl (stereo not drawn)	.	101.0	101.0	-0.5
O=C(Nc1ccccc1)c1cccc(S(=O)(=O)NCCC23CC4CC(CC(C4)C2)C3)c1	-12.8	111.0	112.0	.
CC1=C/C(=N\NC(=S)Nc2cc(C)ccc2C)CC1	-45.6	110.0	115.0	2.6
c1ccc2sc(SCSc3nnc4sc5ccccc5n34)nc2c1	10.1	101.0	102.0	1.4
Nc1nnc(CCC(=O)O)c(=O)n1N	-24.3	102.0	108.0	-4.2
CCOc1cc2[nH]c(=S)n(CCCC(=O)O)c(=O)c2cc1OCC	-5.2	100.0	98.0	12.2
OCC1(CO)COC(COc2ccccc2)=N1	-15.8	103.0	101.0	.
O=c1n(-c2cccc(Cl)c2)c(=O)n(Cc2cccc(F)c2)n1Cc1cccc(F)c1	-23.7	102.0	101.0	-13.9
CC(C)(CO)NC(=O)c1cc(-c2ccc(F)cc2)no1	5.1	100.0	98.0	15.5
O=C(/C=C/c1ccco1)Nc1ccc2oc(-c3ccccc3)nc2c1	-18.8	98.0	105.0	168.0
CCOC(=O)c1nn(-c2ccccc2)c2nc(Nc3ccc(C)cc3)cc(=O)n12	6.6	123.0	133.0	4.6
CCOC(=O)c1sc2c(c1O)c(=O)n(-c1ccccc1)c(=S)n2-c1ccccc1	-15.7	106.0	111.0	-2.4
CCOC(=O)c1c(C)[nH]c(C)c1S(=O)(=O)NCCc1ccccc1	2.3	101.0	101.0	-9.4
Cc1nn(-c2ccc(F)cc2)c(-n2cccc2)c1C(=O)NCCc1cccs1	-1.5	101.0	103.0	-0.9
CCOc1ccc(NC(=O)C(C)NS(=O)(=O)c2ccc(C)cc2)cc1 (stereo not drawn)	-14.9	102.0	104.0	-0.3
Cc1cc(N2CCCC2)ccc1NC(=O)COc1ccc(Cl)cc1	-22.9	102.0	98.0	-3.5
CCc1ccccc1N(C)C(=O)c1noc2c1CCCC2	-9.8	100.0	103.0	-19.8
COc1cccc(C(=O)Nc2ccc(C)cc2)c1	.	103.0	98.0	1.0
CC1CN(C)C(C)(C)CC1(O)c1ccccc1 (stereo not drawn)	-10.7	101.0	100.0	-9.4
CN=c1scc(-c2ccc3c(c2)NC(=O)CO3)n1/N=C/c1ccc(C#N)cc1	-14.4	102.0	114.0	-11.6
